Assay outcomes: PubChem BioAssay, Broad Institute
Tg IFNy HTS = T. gondii growth inhibition with IFN-gamma, primary screen, cell-based; 69,000 tested, 3.8% active; Toxoplasma gondii growth in IFN-gamma-treated host cells; stronger effect = lower value; reference of the scale not given here; AID 1259416, 2018; activity change, negative = inhibition, %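 (about 20 µM by stock and volumes)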;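 active means below -70%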;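 further: host cells are HeLa cells infected with Toxoplasma gondii; parasite growth read as luciferase light; one replicate is shown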
Numbers without * were called inactive.

No. | Compound | Tg IFNy HTS
1 | Cc1ccc(-c2noc(-c3ccc(N4CCC(N5CCCCC5)CC4)nc3)n2)cc1 | 4
2 | COC(=O)c1[nH]ncc1CN1CCCC1c1ccc(F)cc1 (stereo not given) | 13
3 | Cc1cc(OCC(=O)Nc2nc3ccc(S(C)(=O)=O)cc3s2)ccc1C(C)C | -53
4 | O=C(CCCn1cnnn1)N1CCOC(c2ccc(Cl)c(Cl)c2)C1 (stereo not given) | -2
5 | CC(CN1CCN(Cc2ccccc2)CC1)N(C(=O)c1ccoc1)c1ccccn1 (stereo not given) | -46
6 | COc1cc2c(cc1CNC(=O)CC(=O)Nc1cccc(C)c1C)OCCO2 | 3
7 | CN(C)C(=O)N1CCC2(CCC(C(=O)NCC3CC3)O2)CC1 (stereo not given) | 1
8 | CCOC(=O)c1ccc(N2CC3CCCCN3C2c2cccc(OC)c2O)cc1 (stereo not given) | 58

Next section (five carried over from the part before).
No. | Compound | Tg IFNy HTS
4 | O=C(CCCn1cnnn1)N1CCOC(c2ccc(Cl)c(Cl)c2)C1 (stereo not given) | -2
5 | CC(CN1CCN(Cc2ccccc2)CC1)N(C(=O)c1ccoc1)c1ccccn1 (stereo not given) | -46
6 | COc1cc2c(cc1CNC(=O)CC(=O)Nc1cccc(C)c1C)OCCO2 | 3
7 | CN(C)C(=O)N1CCC2(CCC(C(=O)NCC3CC3)O2)CC1 (stereo not given) | 1
8 | CCOC(=O)c1ccc(N2CC3CCCCN3C2c2cccc(OC)c2O)cc1 (stereo not given) | 58
9 | CC(O)c1cn(C2CCN(Cc3cc4ccccc4o3)CC2)nn1 (stereo not given) | 17
10 | Cc1ncc(C(=O)N2CCCC(N(C)CCN(C)C)C2)c(-c2ccccc2)n1 (stereo not given) | -5
11 | Cn1nccc1-c1cc(C(=O)NC(C)(C)CN2CCCCC2)c2ccccc2n1 | 0
12 | O=c1oc2ccccc2cc1-c1nn(-c2ccccc2)cc1CO | 15

A portion of the library (hit frequency here may not be typical).
